gsp antagonist – antagonists of gsp mutant (McCune-Albright syndrome); 340,000 compounds, 0.4% hits; AID 624288; gsp-mutant cells, cAMP HTRF, 30 min; control for the full effect not named in the record; Potency, µM (series often up to 76.9 µM), for the others: top-dose activity change, negative = inhibition, actives largely listed as inhibitors; active = falling curve of any shape with a large fitted effect; inconclusive = falling curve, mostly with a smaller effect; inactive = flat or rising curve; cell line not stated here;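 further: intracellular cAMP measured with PDE inhibitor Ro 20-1724 present during compound exposure; potency means the concentration at half of the fitted maximal effect; on the % scale 0 is the no-effect control and ±100 the full control effect; nearly all actives have a fitted effect of over 65% in size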
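G418-selected cells were plated in DMEM/10% FBS for 16-24 h at 37C, then treated with compounds plus the PDE inhibitor […] (300 uM solution added) for 30 min at 37C. Intracellular cAMP was measured by HTRF after 30 min lysis at room temperature.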
Sfp inh – blocks B. subtilis Sfp PPTase activity | Q9F4F7 | Biochemical Sfp PPTase activity, qHTS | Potency, µM, for inactives: max response, negative = inhibition, hits mostly inhibitors | 310,000 compounds, 3.5% hits; active means well fitted inhibition curve with a large enough effect; inconclusive means small, poorly fitted or top-dose-only effect, or another doubt; inactive means no such curve, though single readings can be large or run the other way;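 further: the enzyme is Sfp with the accession as filed and its product quenches rhodamine fluorescence; potency means the concentration at half of the fitted maximal effect; 0% = enzyme reaction without inhibitor and -100% = no enzyme wells; top concentration of the series not given in the record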
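Fluorescence-quenching assay: 15 nM Sfp-PPTase preincubated 15 min at room temperature with compound, then 5 uM rhodamine-CoA and 12.5 uM BHQ-2-labelled YbbR peptide added. Fluorescence (ex 525/em 598 nm) read at start and after 30 min; difference gives rate.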
PINK1 modulator – PINK1 expression modulation; PINK1 immunofluorescence, high-content cytometry, 24 h; Potency, µM (series often up to 76.6 µM), for inactives: top-dose activation (PINK1 increase), most hits filed as activators; 410,000 compounds, 0.2% hits; AID 624263; active = well fitted activation curve with a large enough effect; inconclusive = small, poorly fitted or top-dose-only effect; inactive = flat fitted curve, though single readings scatter; cell line not stated here;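 further: potency means the concentration at half of the fitted maximal effect; % of control where 0% means no effect; nearly all actives have a fitted effect of over 65% in size; a mitochondrial uncoupler was the plate control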
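PINK1 protein level read as immunofluorescence by microplate cytometer in a fixed, stained stable cell line after 24 h exposure to five compound concentrations, with CCCP as control.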
ClpP mod – qHTS Assay for Activators of ClpP; 340,000 compounds, 1.9% hits; purified B. subtilis ClpP, FRET peptide cleavage, 20 min; Potency, µM (doses to about 57.5 µM), without a hit: at the top dose activity change, negative = active; AID 651965, 2013; active = well fitted falling curve with a large enough effect; inconclusive = small, poorly fitted or top-dose-only effect; inactive = no such curve, though single readings can be large or run the other way; further: potency means the concentration at half of the fitted maximal effect; the source files actives as falling curves though it sought activators and does not explain the sign; nearly all actives have a fitted effect of over 65% in size; many hits overshoot -100%
Target sequence (P80244 whole entry, looked up): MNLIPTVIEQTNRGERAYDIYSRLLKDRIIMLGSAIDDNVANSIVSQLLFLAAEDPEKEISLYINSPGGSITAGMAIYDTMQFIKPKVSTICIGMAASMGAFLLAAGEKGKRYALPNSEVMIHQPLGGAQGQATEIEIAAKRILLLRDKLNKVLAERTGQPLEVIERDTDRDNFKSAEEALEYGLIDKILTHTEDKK
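ClpP 10 microg/mL final, pH 8 Tris/KCl buffer with BSA, glycerol, Tween-20; compound pinned in; FRET-FV substrate; RT 20 min; Ex320/Em430; ΔFRET vs ADEP 5.8 microM, DMSO, no enzyme.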
Menin-MLL FL inh – displaces fluorescein MLL peptide from human menin; FP activity change, % at 61.4 µM; AID 1766; 290,000 tested, under 10 active; Fluorescence polarization, fluorescein-MLL peptide displacement from menin; inconclusive = falling polarisation curve, or a change in total fluorescence; inactive = total fluorescence flat and polarisation flat or rising; no compound was filed as active; the % refers to the polarisation; negative = inhibition;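 further: % of control where 0% means no effect; inhibitors lower the polarisation; unlabelled MLL peptide was the positive control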
gsp ag – agonists of gsp mutant (McCune-Albright syndrome); Potency, µM (highest dose often 76.9 µM), for the others: top-dose activation (cAMP increase), most hits filed as activators; gsp mutant cells, cAMP HTRF, 30 min; control for the full effect not named in the record; 340,000 compounds, 0.13% hits; active = well fitted activation curve with a large enough effect; inconclusive = small, poorly fitted or top-dose-only effect, or another doubt; inactive = no such curve, though single readings can be large or run the other way; cell line not stated here;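 further: phosphodiesterase inhibitor Ro 20-1724 added with compounds to block cAMP breakdown; potency means the concentration at half of the fitted maximal effect; nearly all actives have a fitted effect of over 60% in size; about a fifth of the inactives were tested at one dose only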
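Cells in DMEM/10% FBS with G418 were pretreated with compounds in DMSO plus […] (300 uM stock) for 30 min at 37C. cAMP was measured by HTRF (cAMP-d2 plus anti-cAMP antibody-K) after 30 min at room temperature.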
D2 agonist – human D2 receptor agonism in beta-arrestin assay; 360,000 compounds, 0.084% hits; activation, % (concentration not given with the values); DiscoveRx PathHunter D2 beta-arrestin, luminescence, 90 min; 100% = 57 uM dopamine signal; P14416; AID 624465; in the data active = activation above about 40%; inconclusive = about 15% to 40%; inactive = below about 15%; further: the text of the record calls up to 30% inactive
Target sequence (P14416 whole entry, looked up): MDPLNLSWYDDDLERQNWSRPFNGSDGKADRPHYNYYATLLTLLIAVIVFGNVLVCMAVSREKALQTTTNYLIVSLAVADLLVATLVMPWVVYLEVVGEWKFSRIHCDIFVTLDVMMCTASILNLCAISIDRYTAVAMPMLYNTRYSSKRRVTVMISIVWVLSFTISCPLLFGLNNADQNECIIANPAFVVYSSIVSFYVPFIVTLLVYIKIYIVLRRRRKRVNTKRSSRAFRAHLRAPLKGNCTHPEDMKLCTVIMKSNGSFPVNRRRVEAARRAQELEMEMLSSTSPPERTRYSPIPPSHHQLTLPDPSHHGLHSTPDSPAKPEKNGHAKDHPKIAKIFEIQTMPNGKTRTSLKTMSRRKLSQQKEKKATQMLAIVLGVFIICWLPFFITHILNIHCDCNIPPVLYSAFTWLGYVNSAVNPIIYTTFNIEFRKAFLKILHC
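DiscoveRx PathHunter D2 beta-arrestin cells (2,100/well) attached overnight, then compound-stimulated 90 min at 37 C in HBSS/10 mM HEPES/0.1% Tween-20 buffer; beta-galactosidase complementation read by luminescence after 1 h at ambient temperature. Dopamine 57 uM final (EC100) as control.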
* hit, by the source's call; ? = inconclusive; · = no result given; & = joins results of further samples; [ ] = dose if it differs, or a comment. Rows were taken by chance; overall some 5.1% were active at least once.

SMILES	gsp antagonist	Sfp inh	PINK1 modulator	ClpP mod	Menin-MLL FL inh	gsp ag	D2 agonist
Cc1cc(C)n(CC(O)Cn2ccc3ccccc32)n1 (stereo unspecified)	4.7%	1.7%	?	-3.9%	4.4	15.7%	2.1
O=S(=O)(NCc1cccnc1)c1ccccc1	4.4%	13.2%	5.3%[38.3 µM]	-0.3%	2.9	7.2%	-2.6
Cc1csc(NC(=O)CSc2ccc([N+](=O)[O-])cn2)n1	-10.4%	3.1%	2.2%	2.1%	1.4	-16.6%	4.1
COc1cccc(-c2cncnc2NCc2cccnc2)c1	·	?	2.2%	·	-2.9	·	·
S=C(NCc1cccnc1)Nc1cccc2ccccc12	13.1%	-0.5%	1.6%	0.7%	-1.8	-21.6%	-1.1
CCOc1ccccc1NC(=O)COC(=O)C1CC(=O)N(c2c(C)cccc2C)C1 (stereo unspecified)	2.2%	13.7%	-2.2%	·	3.5	?	-1.2
CCOc1ccc(Nc2nc(NCC(=O)O)nc(N)c2[N+](=O)[O-])cc1	11.4%	4.0%	1.5%	·	-29.1	-8.8%[15.4 µM]	-2.4
CCOc1cc(C(=O)Nc2cc3c(cc2N2CCOCC2)n(C)c(=O)n3C)cc(OCC)c1OCC	1.8%	9.6%	6.6%&-0.2%	0.5%&0.3%	-0.2	-1.6%	4.6
Cc1ccc(S(=O)(=O)C2(C(=O)NC3CCCC3)CC2)cc1	-8.4%	4.9%	9.0%[38.3 µM]	1.1%	-2.1	5.0%	2.2
COc1ccc(Cl)cc1NC(=O)CN(C)C(=O)c1cc2ccccc2cc1OC	?	·	-0.7%	-25.5%	·	-11.0%[15.4 µM]	0.6
CCCCOn1c(C)c(C(C)=O)c2c3no[n+]([O-])c3ccc21	?	25.2%	?	·	1.1	-6.7%[15.4 µM]	-4.1
OCC1(Cc2ccccc2)CCCN(Cc2ccc3c(c2)OCCO3)C1 (stereo unspecified)	7.3%	21.8%	2.3%	1.1%	5.6	10.4%	-3.5
O=C(CCn1c(=O)oc2ccccc21)n1c(=O)oc2ccccc21	5.1%	-2.6%	-0.4%	-1.8%	4.9	?	-1.6
COc1ccccc1CCC(=O)OCC(=O)NC1CC1	7.6%	·	1.8%	·	·	11.7%[15.4 µM]	-3.4
Cc1ccc(NC(=O)N2C3CCCC2CC(NC(=O)C(C)(C)C)C3)cc1 (stereo unspecified)	1.1%	7.9%	1.0%	-1.6%	-2.3	?	-3.4
COc1nsnc1NS(=O)(=O)c1ccc(NC(=S)NC(=O)c2cccnc2)cc1	-4.3%	?	1.4%	·	-1.8	-3.2%[15.4 µM]	-10.6
COc1ccc(C(N)CCc2ccco2)cc1 (stereo unspecified)	3.8%	3.0%	3.6%	-2.8%	9.5	-17.3%	-3.4
O=C(CN1CCN(c2ccc(F)cc2)CC1)NCC1CCCO1 (stereo unspecified)	3.0%	11.6%	-4.3%[38.3 µM]	-2.6%	-0.9	-13.4%	0.0
Cc1c(C(=O)OCC(C)(C)CN(C)C)oc2ccccc12	11.1%	17.2%	-0.4%	-8.4%	-0.8	-0.8%	-1.8
O=C1NC(c2ccccc2)CCO1 (stereo unspecified)	-8.3%	-1.8%	-0.3%	-2.2%	-6.4	-7.6%	-3.9
CCC(C)Sc1ccc([C@@H]2[C@H]3C(=O)N(C)C(=O)[C@H]3[C@]3(C(=O)OC)CCCN23)cc1 (stereo partly specified)	3.0%	·	1.5%	-3.1%	·	0.2%	-0.9
COC(=O)c1ccccc1NS(C)(=O)=O	15.6%	·	-0.3%	2.0%&-0.5%	·	-1.1%	-2.5
Cc1nc([N+](=O)[O-])c(Br)n1CC(=O)c1ccc2ccccc2c1	5.2%	-13.4%	-1.5%	1.3%	-0.8	38.0%	-2.3
Cc1ccc(-c2csc(N(C)C(=O)c3c(C)nn(-c4ccccc4)c3Cl)n2)cc1	-13.6%	-5.8%	4.1%[38.3 µM]	-1.7%	-0.7	-4.5%	-1.0
COc1cc(Nc2c3c(nc4ccccc24)CCCC3)cc(OC)c1OC	10.0%	5.6%	?	·	-0.4	18.3%	5.6
COc1ccc(OC)c(-c2nc(C(=O)NC3CCN(Cc4ccccc4)CC3)cc3c2[nH]c2ccccc23)c1	-6.5%	0.7%	0.2%	4.5%	2.2	·	-3.9
COc1ccc(C2CC(c3ccccc3)Nc3nc(N)nn32)cc1 (stereo unspecified)	5.0%	19.7%	1.7%	-3.8%	1.6	11.3%	-3.8
Cc1cccc(Cn2c(C(C)(C)C)cc3cccnc32)c1	7.4%	4.0%	?	-6.5%	1.4	-2.2%	-5.0
O=C(Nc1nccs1)c1cc(N2CCOCC2)nc2ccccc12	0.2%	1.9%	0.8%	0.5%	-2.7	?	-2.4
Cc1ccc(NC2=CC(=O)CC(C)(C)C2)cc1Cl	-11.1%	2.0%	4.6%	·	-0.6	5.2%	1.5
CSc1ccc(S(=O)(=O)Nc2ccc3c(c2)OCCO3)cc1	-8.7%	-8.7%	0.8%	-0.4%	2.2	17.3%	3.1
C[C@@H]1CN([C@H](C)CO)C(=O)c2c(c3ccccc3n2C)-c2ccccc2CO[C@H]1CN(C)Cc1ccccc1	·	·	-0.2%	-5.8%	·	-7.6%	-4.5
Cc1ccc(OCc2cc(C(=O)N(C)Cc3cnc4ccccn34)no2)cc1C	?	3.4%	-1.8%	-3.2%	2.0	10.6%	-0.4
Nc1n[nH]c(N)c1N=Nc1ccc2c(c1)OCO2	-4.4%	-8.1%	-0.4%	-0.8%	1.8	12.1%	-4.3
Cc1ccc(NC(=O)CC2Oc3ccccc3NC2=O)c(C)c1 (stereo unspecified)	7.0%	-6.7%	-0.2%	1.6%	3.5	-32.8%[inhibitor]	-2.2
CCCCN1C(=O)N(c2ccccc2Cl)C(C)(O)CC1(C)C (stereo unspecified)	-7.5%	-3.8%	0.4%	-3.2%	-0.8	13.6%	-2.1
Cc1nc(NCCCn2ccnc2)c2ccccc2n1	3.0%	-15.1%	0.3%[38.3 µM]	-13.1%	1.8	22.3%	-0.5
O=C(Cc1c(F)cccc1Cl)NNC(=O)c1cccs1	-0.2%	·	-0.9%	0.0%	·	-23.5%	7.2
Cc1c(CCO)c(=O)[nH]n1S(=O)(=O)c1ccc(Cl)cc1Cl	-5.4%	14.7%	0.1%	-1.3%	0.3	-25.3%	-0.7
CCOC(=O)c1nc(C)n(-c2cc(Cl)ccc2Cl)n1	3.6%	2.5%	2.4%	-0.2%	-2.4	19.3%	0.0
CCOC(=O)C1CCN(C(=O)Cc2cccs2)CC1	17.1%	12.1%	-2.3%	0.5%	?	-52.2%[inhibitor]	-3.3
Cc1ncoc1C(=O)Nc1ccc2c(c1)OCCO2	4.6%	10.7%	8.2%[38.3 µM]	0.2%	-0.3	-3.4%	-0.7
CCc1nc2c(OCC(=O)C(C)(C)C)cccn2c1N(C)C(=O)c1ccco1	·	·	-0.6%	0.0%	·	·	8.8
COc1ccc(C(C(=O)NC2CCCCC2)N(C(=O)CCl)c2cccc(Cl)c2)cc1 (stereo unspecified)	4.4%	14.6%	-3.7%	-9.9%	4.2	3.3%	-5.3
O=C(O)Cc1ccc(S(=O)(=O)Nc2ccccc2C(=O)O)cc1	11.5%	-6.8%	4.5%	·	0.5	17.7%	-5.9
COc1ccc(Nc2cc(C)nc3ncnn23)cc1	6.5%	·	1.0%	·	·	2.7%	2.5
COc1ccc(S(=O)(=O)N(CC(=O)N2CCN(C)CC2)c2ccc(C)cc2)cc1OC	8.6%	15.2%	0.8%[38.3 µM]	-4.4%	1.5	-45.8%[inhibitor]	-0.1
COc1cc(C(=O)Nc2ccc(-c3nnc(-c4ccco4)o3)cc2)cc(OC)c1OC	-6.8%	5.9%	-1.1%	14.1%	1.1	-2.7%	2.5
CCCc1ccc(OCc2ccc(C(=O)N/N=C/c3cccc([N+](=O)[O-])c3)o2)c(OC)c1	-9.6%	18.0%	9.0%	0.9%	0.4	-1.1%	-3.4
CC(=O)Cc1c(C(=O)O)c(C)nn1-c1ccccc1	-1.4%	19.3%	0.7%	·	3.7	12.6%[15.4 µM]	-1.6
New compounds follow
SMILES	gsp antagonist	Sfp inh	PINK1 modulator	ClpP mod	Menin-MLL FL inh	gsp ag	D2 agonist
O=C(O)C1CC(=O)N(c2ccc3c(c2)OCCO3)C1 (stereo unspecified)	13.9%	4.4%	-0.7%	-1.1%	0.6	6.1%	-2.5
CCC(c1nnnn1Cc1ccco1)N1CCN(c2cc(Cl)ccc2C)CC1 (stereo unspecified)	3.9%	-0.8%	0.3%	-0.5%	-0.1	-5.1%	-2.8
C#Cc1ccc([C@H]2C=C(C(=O)N3CCN(Cc4ccc5c(c4)OCO5)CC3)O[C@@H](OCc3ccc(CO)cc3)C2)cc1	-6.8%	2.7%	-1.4%	-12.5%	-0.9	·	1.5
Cc1ccc(Cl)cc1NC(=S)N(CCN(C)C)C(C)c1ccccn1 (stereo unspecified)	14.1%	-10.1%	-0.5%	·	0.4	-10.8%[15.4 µM]	1.1
CCCNC(=O)c1nn2c(C(F)(F)F)cc(-c3ccccc3)nc2c1Cl	-15.1%	15.9%	10.4%	0.1%	1.1	9.7%[15.4 µM]	0.4
CCOc1ccccc1CNC(=O)CCN1C(=O)COc2ccccc21	-10.0%	-1.0%	-0.8%[38.3 µM]	0.8%	-0.8	-8.8%	-1.9
COCCn1c(SCC(=O)Nc2ccc(N3CCOCC3)cc2)nc2ccccc21	4.8%	11.2%	0.5%	-2.0%	0.3	14.3%[15.4 µM]	-5.1
Cn1nc(C(F)(F)F)c2cc(C(=O)Nc3ccc(F)c(Cl)c3)sc21	?	?	?	·	1.7	14.2%	-1.3
COC(=O)c1ccccc1NC(=O)c1ccccc1N(C)S(C)(=O)=O	6.0%	10.1%	-1.8%	0.7%	3.3	15.1%	-1.7
Cc1cccc2sc(NC(=O)C3CCCO3)nc12 (stereo unspecified)	-2.6%	27.2%	2.3%[38.3 µM]	-0.6%	1.3	-29.1%	-0.6
CCCCc1nc2cc(C(=O)NCc3ccccn3)ccc2o1	4.1%	4.1%	-1.1%	-4.2%	-1.8	-2.6%	3.0
CN(CC(=O)Nc1ccc(Cl)c(C(F)(F)F)c1)C(=O)CCN1C(=O)C2CCCCC2C1=O (stereo unspecified)	5.4%	·	0.3%	1.2%	·	-16.4%	-0.9

Screening results: PubChem BioAssay, National Center for Advancing Translational Sciences (NCATS)
